GLA inh pH 4.5 – blocks human alpha-galactosidase A at pH 4.5; P06280; activity change, negative = inhibition, % at 105 µM; 230,000 tested, under 10 active; purified enzyme, 4-MU-alpha-Gal fluorescence, pH 4.5; inconclusive = small, poorly fitted or top-dose-only inhibition, or a rising curve; inactive = flat fitted curve, though single readings scatter; no compound was filed as active;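 note: 0% = full activity with enzyme and -100% = basal without enzyme; dose as in the result columns while the protocol names 77 µM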
Target sequence (P06280 whole entry, looked up): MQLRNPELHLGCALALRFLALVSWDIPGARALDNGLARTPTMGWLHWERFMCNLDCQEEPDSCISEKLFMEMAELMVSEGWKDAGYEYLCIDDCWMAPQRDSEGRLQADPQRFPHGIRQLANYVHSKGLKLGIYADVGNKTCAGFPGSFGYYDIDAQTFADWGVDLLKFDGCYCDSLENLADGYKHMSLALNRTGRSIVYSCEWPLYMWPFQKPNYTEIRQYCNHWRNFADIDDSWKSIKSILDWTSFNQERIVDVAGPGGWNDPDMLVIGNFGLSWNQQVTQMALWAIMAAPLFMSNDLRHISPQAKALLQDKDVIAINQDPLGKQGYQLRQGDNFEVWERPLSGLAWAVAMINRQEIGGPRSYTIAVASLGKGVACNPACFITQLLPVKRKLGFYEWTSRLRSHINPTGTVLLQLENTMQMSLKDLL
Rango complex inh – prevents formation of the Rango-importin beta complex | hit rate 0.031% among 340,000 | Rango CFP/YFP FRET sensor + importin beta, 45 min | Q14974 | Potency, µM (top dose mostly 92.2 µM), for inactives: at the highest dose inhibition of complex formation; active = rising FRET ratio curve, often small or poorly fitted; inconclusive = mostly compound fluorescence or quenching in the first reads; inactive = flat curves in all reads;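 note: potency is the fitted concentration of half-maximal effect; 0% = DMSO wells and 100% = buffer wells lacking importin beta; nearly all actives have a fitted effect of over 15% in size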
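FRET biosensor (snurportin 1 IBB flanked by EYFP and cerulean), 50 nM, with compound 5 min, then 0.125 microM importin beta in PBS, 1 mM DTT, 0.02% Tween-20, 0.1% BSA. CFP/YFP ratio read after 45 min at room temperature; pre-read flags interference.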
Rango dissoc inh – inhibitors of RanGTP-induced Rango-importin beta complex dissociation; Biochemical FRET Rango-importin beta, RanGTP-induced dissociation; Potency, µM (series often up to 46.1 µM), for inactives: at the top dose activity change, negative = inhibition; hit rate 0.071% among 340,000; active means falling FRET ratio curve, often poorly fitted, with flat reads before Ran was added; inconclusive means other falling curves, or compound fluorescence or quenching; inactive means flat or rising ratio curve;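 note: potency is the fitted concentration of half-maximal effect; % of control where 0% means no effect; nearly all actives have a fitted effect of over 45% in size; -100% = wells without RanGTP and RCC1; the record marks most hits as doubtful in a second field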
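Recombinant Rango FRET biosensor (EYFP–snurportin 1 IBB–cerulean CFP10) at 0.1 uM premixed with 0.25 uM importin beta in PBS, 1 mM DTT, 0.02% Tween-20, 0.1% BSA. Compound added 5 min; RanGTP-RCC1 (0.6 uM Ran, 2 mM GTP, 0.2 uM RCC1) then triggers release, read at 45 min.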
miR-21 reporter – miR-21 reporter, rising signal; Potency, µM (titrated, usually from 38.3 µM), inactives show at the top dose reporter change, positive = more light; 340,000 tested, under 10 active; HeLa miR-21 FLuc reporter, luciferase, 48 h; active = well fitted rising curve with a large enough effect; inconclusive = small, poorly fitted or top-dose-only effect; inactive = no such curve, though single readings can be large or run the other way;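 note: % of control where 0% means no effect; miR-21 action dims this reporter so a rising signal means less miR-21 action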
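Using DMEM plus 10% FBS, HeLa miR-21-FLuc cells are incubated with test compounds (final up to about 40uM) for 48 hours; firefly luciferase signal is then imaged following reagent-mediated lysis.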
Active calls of the source: *; u = inconclusive; x = no result given; & = joins results of further samples. These rows are one share of the data. The share of hits here may be higher or lower than overall.

Rango complex inh | Rango dissoc inh | GLA inh pH 4.5 | miR-21 reporter | compound
-0.5% | 15.7% | x | -7.1% | CC(Sc1ncnc2c1cnn2-c1ccccc1)C(=O)NCC1CCCO1 (configuration not stated)
u | u | x | x | O=C(NN=Cc1cc(Br)c(O)c(Br)c1)c1ccccc1NS(=O)(=O)c1cccs1
u | u | x | 18.4% | COc1cccc(/C=N/NC(=O)c2c(C)nc3ccc(Cl)cn23)c1O
u | -0.7% | 11.3 | -31.4% | O=C(COc1ccccc1)Nc1cccc2nsnc12
2.4% | -1.6% | 1.8 | 0.7% | Cn1c(=O)c2c(ncn2CC(=O)N2CCN(c3cccc(Cl)c3)CC2)n(C)c1=O
-0.7% | -3.6% | 0.3 | -8.5% | O=C(O)CSc1nccc2ccccc12
8.6% | -10.6% | x | x | CCOc1cc(/C=C/C(=O)OCC(=O)NCc2ccco2)cc(Cl)c1OC
-4.6% | 2.7% | x | -7.5% | COC(=O)CSc1nc(N2CCOCC2)c2c(c1C#N)CC(C)(C)OC2
-1.5% | 0.9% | 3.2 | -5.0% | COc1ccc(C(=O)Oc2ccc3oc(=O)sc3c2)cc1
-2.4% | -26.3% | -2.4 | 2.5% | COc1ccc(S(=O)(=O)Nc2cc3c(cc2C(C)=O)OCO3)cc1
x | x | 8.1 | -8.0% | Cc1cc(C)n(-c2nc3sc4c(c3c(=O)[nH]2)CCCC4)n1
0.1% | 8.7% | x | 4.1% | Cc1cc(N2CCN(c3ccc(C(F)(F)F)cc3[N+](=O)[O-])CC2)c2ccccc2n1

3 entries from above in a different format.
Value order: Rango complex inh, Rango dissoc inh, GLA inh pH 4.5, miR-21 reporter
> COc1ccc(C(=O)Oc2ccc3oc(=O)sc3c2)cc1
    -1.5%, 0.9%, 3.2, -5.0%
> COc1ccc(S(=O)(=O)Nc2cc3c(cc2C(C)=O)OCO3)cc1
    -2.4%, -26.3%, -2.4, 2.5%
> Cc1cc(C)n(-c2nc3sc4c(c3c(=O)[nH]2)CCCC4)n1
    x, x, 8.1, -8.0%

(further entries)
Rango complex inh | Rango dissoc inh | GLA inh pH 4.5 | miR-21 reporter | compound
1.5% | 0.9% | x | 3.0% | CC(=O)c1ccc(N2C(=NC(=O)C3CCCO3)SC3CS(=O)(=O)CC32)cc1 (configuration not stated)
-2.1% | 7.5% | 1.1 | -7.1% | O=C(C[n+]1cc(-c2ccc(F)cc2)n2c1CCC2)OCc1ccccc1
-0.5% | u | x | 0.9% | CCOC(=O)C1CCCN(C(=O)c2cc3c(OC)c(OC)c(OC)cc3[nH]2)C1 (configuration not stated)
-0.2% | -14.6% | 0.0 | -3.0% | CCOC(=O)N1CCN(C(=O)C(CC(C)C)NC(=O)C2CCCCC2)CC1 (configuration not stated)
0.3% | -2.1% | -10.3 | -51.3% | CCOC(=O)CNC(=O)c1ccc(SCC)cc1
-2.5% | -9.5% | -5.0 | 5.2% | O=C(NC(=S)N1CCN(C/C=C/c2ccccc2)CC1)c1ccc(Cl)nc1
x | x | -2.3 | -0.1% | Cc1cc(C(=O)OCC(=O)Nc2cc(S(=O)(=O)N(C)C)ccc2C)c(C)o1
0.9% | -8.9% | 3.5 | -6.2% | O=C(O)/C=C/c1cn(-c2ncc(C(F)(F)F)cc2Cl)c2ccccc12
0.1% | 0.9% | -11.8 | -62.6% | COc1ccc(C(=O)OCc2csc(C)n2)c(O)c1
-2.9% | -4.2% | x | x | CC(OC(=O)CSc1ccc([N+](=O)[O-])cc1)C(=O)NCc1ccco1 (configuration not stated)
1.9% | 3.9% | 4.5 | -0.4% | CC(C)CCOC(=O)C1C(c2ccccc2)C(C(=O)O)C1c1ccccc1 (configuration not stated)
-0.4% | -10.5% | x | 9.6% | Cc1ccc(CN2CCC(n3nccc3NC(=O)CCOc3ccccc3)CC2)cc1C
2.5% | -3.1% | -4.1 | -13.1% | COc1ccccc1C/C(N)=N/OC(=O)COc1ccccc1C
2.4% | 13.8% | 3.0 | -14.2% | Fc1ccc(/C=N/Nc2nc3ccccc3[nH]2)cc1F
-0.2% | 3.8% | 4.9 | -21.4% | Cc1cc(=O)oc2n[nH]c(-c3ccccc3)c12
-2.1% | 0.9% | 1.2 | -0.3% | COc1ccc2oc(=O)c(C(=O)N3CCN(c4ccccc4F)CC3)cc2c1
-3.4% | -3.4% | -22.6 | 0.0% | CCc1nnc(NC(=O)c2cc(-c3ccco3)nc3ccccc23)s1
-0.2% | -2.2% | x | x | O=C(C[C@@H]1C/C=C\C[C@@H](Cc2ccc(F)cc2)C(=O)OC[C@@H]2CCCN2C1=O)NCCO
4.0% | -1.7% | 4.9 | 10.3% | COc1ccc(N2CCC(CNC(=S)Nc3cc(C)ccc3C)C2)cc1 (configuration not stated)
0.0% | 1.5% | 1.5 | -0.1% | O=C1CCN(Cc2ccccc2)CCN1CCO
-0.4% | 16.2% | 6.7 | -7.1% | CCCn1c(C)cc(C(=O)CSc2nc3nc(C)cc(C)n3n2)c1C
-1.2% | 7.0% | x | 1.0% | COC(=O)[C@H](CCSC)NC(=O)[C@@H](Cc1cnc[nH]1)NC(=O)OCc1ccccc1
-3.1% | -1.1% | x | x | Cc1cc(C)c(OCC(=O)OCC(=O)N2CCCc3ccccc32)c(C)c1
1.7% | -5.8% | -5.3 | 5.1% | O=C(NNc1cc(Br)c(O)c(Br)c1)c1ccccc1
u | -11.6% | -13.5 | 15.9% | O=C1N/C(=C/c2ccc(N3CCOCC3)o2)C(=O)N1c1ccccc1
-1.3% | 18.6% | -3.8 | -55.1% | Cc1ccccc1NC(=O)C(=O)Nc1ccccc1C
-2.6% | -2.1% | 1.8 | -0.4% | Cc1cc(C=O)c(C)n1-c1cccc(C(=O)O)c1
-0.3% | 2.6% | -8.5 | -3.5% | CCOC(=O)C1CCCN(C(=O)CC(c2ccccc2)c2ccccc2)C1 (configuration not stated)
-3.8% | 10.8% | -3.5 | -28.0% | O=S(=O)(/N=C(/Nc1ccccn1)c1ccccc1)c1ccc(Cl)cc1
-4.0% | 0.5% | -4.0 | 3.7% | Cc1ccc2[nH]c(=O)c(CN(CCCO)C(C)c3nnnn3Cc3ccco3)cc2c1 (configuration not stated)
0.7% | 5.2% | x | 8.5% | Cn1c(CC(=O)Nc2ccccc2)nnc1SCC(=O)NC1=NCCS1
-1.1% | -3.7% | x | -0.1% | CC(=O)NCCc1nc2cc(NS(=O)(=O)c3ccc(Cl)cc3)ccc2n1C
-0.2% | -0.5% | x | -1.0% | O=C(COC(=O)c1ccc(Br)cc1)NC1CCCC1
3.0% | -5.3% | x | x | Cc1noc(C)c1S(=O)(=O)N1CCCN(C(=O)/C=C/c2ccccc2F)CC1
1.8% | 1.5% | 1.4 | 0.1% | COC(=O)CSc1nnc(CNC(=O)c2ccccc2OC)n1-c1ccc(OC)cc1
-1.9% | 0.8% | 9.4 | 5.8% | O=C(CCc1nnc(CCCCc2ccccc2)o1)NCCc1cccnc1
-4.3% | 23.1% | -3.4 | -7.5% | CCOC(=O)c1ccc(-n2c(CN3CCN(CCO)CC3)nc3ccc([N+](=O)[O-])cc3c2=O)cc1
x | x | 2.2 | -1.0% | O=C(Oc1cccc(O)c1)C1CCCCC1
10.3% | 10.3% | 0.1 | -0.6% | CCCCCCC(c1c(C)n(C)n(-c2ccccc2)c1=O)c1c(C)n(C)n(-c2ccccc2)c1=O
-0.8% | 13.9% | x | 28.3% | COc1cc2c(cc1OC)C(COc1ccc(C(C)C)cc1)NCC2 (configuration not stated)
-6.0% | -9.7% | -1.6&-7.3 | -1.6% | Cc1cc(C(C)(C)C)c(O)c(C(C)(C)C)c1
3.1% | 0.3% | x | -1.5% | Cc1cc(OC(C)C(=O)NCc2ccccn2)c2c(C)c(Cc3ccccc3)c(=O)oc2c1 (configuration not stated)
u | u | -3.1 | 18.2% | Cc1cc(-n2c(C)cc(C(=O)CSc3ncnc4ccccc34)c2C)no1
-1.4% | 14.1% | x | x | COc1ccc(C2=CC(=O)C[C@H](c3ccc(OC)c(OC)c3)C2)cn1
0.0% | -7.1% | x | -18.7% | COc1ccc(NC(=O)N2CCCc3ccccc32)c(OC)c1
5.3% | 3.3% | -0.2 | -16.5% | C/C(=N\NC(=O)c1ccc(Cn2cc([N+](=O)[O-])cn2)o1)c1cccc(NC(=O)c2cccnc2)c1
-4.2% | -7.3% | x | -3.5% | CCN1CCN(C(=O)/C(=C/c2cccs2)NC(=O)c2ccc(C)c(C)c2)CC1
-2.2% | 0.2% | x | x | O=C(O)C1OC1(c1ccccc1Cl)c1ccccc1Cl (configuration not stated)
1.7% | 14.4% | 2.5 | 2.1% | CCN(CCCNC(=O)C1CCCN(S(=O)(=O)c2cnc[nH]2)C1)c1ccccc1 (configuration not stated)
-3.6% | -11.2% | 6.4 | -21.6% | CCOC(=O)c1c(C)oc2ccc(OC(=O)COc3c(F)c(F)c(F)c(F)c3F)cc12
u | -9.3% | 0.0 | 6.1% | Oc1ccc2ccccc2c1C=Nc1ccc(Cl)cn1
-3.5% | -1.1% | -4.0 | -8.8% | CCOC(=O)Nc1ccc2c(c1)N(C(=O)N1CCN(C)CC1)c1ccccc1S2
-0.1% | -2.8% | -12.3 | -23.5% | COc1cc(-c2nc3ccc4ccccc4c3c3c2CCC3)cc(OC)c1OC
-1.8% | 0.8% | x | x | CCN(CC)C(=O)[C@H]1C[C@H](CC(=O)NC(C)(C)C)C(=O)N2CCc3c([nH]c4cc(CCC(=O)N(C)C)ccc34)[C@]12C
-0.3% | -8.3% | x | 22.7% | C=CCOc1ccc(CN(C)C(=O)CNC(=O)c2ccc(-c3ccccc3)cc2)cc1
-2.1% | -20.7% | -7.0 | -1.3% | COc1cc(OC)cc(C(C(=O)NC2CCCCC2)N(C(=O)c2ccno2)c2ccccc2)c1 (configuration not stated)
-1.4% | -12.8% | 5.5 | -46.8% | CCOC(=O)/C(C#N)=C/c1ccc(OCC(=O)Nc2ccccc2)c(OC)c1
3.1% | -4.6% | -3.5 | -9.9% | Cc1nn2c(N3CCCC3)c3c(nc2c1-c1ccccc1)CCC3
1.8% | 7.2% | 7.5 | -5.6% | N#CCN1CCN(CC(=O)Nc2cccc3ccccc23)CC1
0.5% | -2.7% | u | 4.4% | COC(=O)c1ccc2c(=O)n(CCCCCC(=O)NCc3ccccn3)c(=O)[nH]c2c1

Among those listed so far, 9 contain a Cl atom.
Rango complex inh | Rango dissoc inh | GLA inh pH 4.5 | miR-21 reporter | compound
u | u | x | 18.4% | COc1cccc(/C=N/NC(=O)c2c(C)nc3ccc(Cl)cn23)c1O
2.4% | -1.6% | 1.8 | 0.7% | Cn1c(=O)c2c(ncn2CC(=O)N2CCN(c3cccc(Cl)c3)CC2)n(C)c1=O
8.6% | -10.6% | x | x | CCOc1cc(/C=C/C(=O)OCC(=O)NCc2ccco2)cc(Cl)c1OC
-2.5% | -9.5% | -5.0 | 5.2% | O=C(NC(=S)N1CCN(C/C=C/c2ccccc2)CC1)c1ccc(Cl)nc1
0.9% | -8.9% | 3.5 | -6.2% | O=C(O)/C=C/c1cn(-c2ncc(C(F)(F)F)cc2Cl)c2ccccc12
-3.8% | 10.8% | -3.5 | -28.0% | O=S(=O)(/N=C(/Nc1ccccn1)c1ccccc1)c1ccc(Cl)cc1
-1.1% | -3.7% | x | -0.1% | CC(=O)NCCc1nc2cc(NS(=O)(=O)c3ccc(Cl)cc3)ccc2n1C
-2.2% | 0.2% | x | x | O=C(O)C1OC1(c1ccccc1Cl)c1ccccc1Cl (configuration not stated)
u | -9.3% | 0.0 | 6.1% | Oc1ccc2ccccc2c1C=Nc1ccc(Cl)cn1

Source: PubChem (National Center for Advancing Translational Sciences (NCATS))
